# Sa helicase inh: S. aureus DNA helicase inhibition | 120,000 tested, 0.05% active | inhibition, %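 (tested at about 80 µM)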 | purified S. aureus helicase, fluorescence unwinding assay; about half of the hits fall short of the stated cut;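 active means both duplicates at 50% or more, or one of them with a favoured structure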;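 further: 0% = mean of negative control wells and 100% = mean of positive control wells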
# MgrA DNA FP: alters Staphylococcus aureus MgrA binding to DNA; AID 602314; inhibition, %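 (about 10 µg/mL by stock and volumes)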; 84,000 tested, 0.13% active; fluorescence polarization;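 active means above 50% in either of two replicates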;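 further: 0% = protein plus DNA without compound and 100% = DNA alone without protein; higher means less MgrA bound to DNA so lower polarization; one replicate is shown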
# The depositor's hits bear a star; / = no result given; & = joins results of further samples. This is a subset. The share of hits here may be higher or lower than overall.
molecule	Sa helicase inh	MgrA DNA FP
O=C(Nc1nonc1NC(=O)c1ccccc1)c1ccccc1	-13.0	/
CC(C)(C)c1csc(N/N=C/c2ccc(Cl)cc2)n1	/	1.1
Cc1ccc(-c2nn(-c3ccccc3)cc2/C=C/C(=O)OCC(N)=O)o1	-5.0	/
Cc1ccc(C(=O)NC(NCc2ccco2)(C(F)(F)F)C(F)(F)F)cc1	/	0.5
COc1ccccc1C(=O)Nc1nc2ccccc2n1CCOc1ccccc1	6.0	/
CC(C)(C)CC(C)(C)c1ccc(O)c(Cc2ccc(Cl)cc2Cl)c1	/	2.0
Cn1ncc(Br)c1NC(=O)C(C)(C)C	/	-1.9
Nc1cccnc1N1CCOCC1	-3.0	/
Oc1ccc(C=NCc2ccco2)cc1	2.0	3.8
COC(=O)CN(c1ccccc1Cl)S(C)(=O)=O	-1.0	-1.0
COCCCNC(=S)NNC(=O)c1cc(OC)c(OC)c(OC)c1[N+](=O)[O-]	/	-0.5
CC1=C(C(=O)OC2CCCN(C)C2)C2(O)C(=O)c3ccccc3C2(O)N1 (stereo unspecified)	/	-0.6
CCOC(=O)c1c(/C=C2\C(=O)Nc3ccccc32)c(C)n(-c2ccccc2)c1C	/	-0.8
O=C(O)CCNc1nc(-c2ccccc2)c2cc(Br)ccc2n1	-8.0	3.8
O=C(Oc1ccc(-c2nnco2)cc1)c1ccccc1OC(F)F	16.0	/
Cc1[nH]c2ccc(OC(F)(F)F)cc2c1CCNC(=O)C1CC=CCC1C(=O)OC(C)C (stereo unspecified)	9.0	-0.6
O=C(CC12CC3CC(CC(C3)C1)C2)NO	11.0	/
CC(c1ccccc1)C1C(C#N)=C(N)Oc2n[nH]c(-c3ccccc3)c21 (stereo unspecified)	0.0	-2.8
COc1ccc(Cl)cc1NC(=O)C1CCCN(c2cc(C)nc3ncnn23)C1 (stereo unspecified)	5.0	-1.3
CCN(CC)c1ncc2c(SCC(N)=O)nc(SCC(N)=O)nc2n1	25.0	/
S=C(/C(=C/N1CCOCC1)c1ccccc1)N1CCOCC1	5.0	-1.7
N#CC1=C(N)OC2=C(C(=O)CCC2)C1c1ccccc1 (stereo unspecified)	7.0	/
OC1C=COC2COC(c3ccccc3)OC12 (stereo unspecified)	/	-1.6
CCCCNC(=O)c1cc(C)nc2ccccc12	12.0	/
Cc1ccc2c(c1)CCCN2C(=O)c1sc2ccccc2c1Cl	/	-3.3
N#Cc1sc2ncc3c(c2c1N)CCCC3	7.0	0.2
CC(=O)N1CCN(C(=O)COc2ccc(NC(=O)c3ccccc3)cc2)CC1	26.0	/
CC1=NN(c2cccc3ccccc23)C(=O)C1	-1.0	3.8
CCOc1nc(N)nc(NC)n1	/	1.0
CCn1nc(C)cc1-c1nnc(-c2ccccc2Cl)o1	/	-3.3
O=C(Nc1ccc2oc(-c3ccccc3Br)nc2c1)c1cccc([N+](=O)[O-])c1	/	0.0
CCN(Cc1ccncc1)S(=O)(=O)c1cc(/C=C/C(=O)O)cc(OC)c1OC	3.0	/
CC(C)=CC(=O)NCCc1ccccc1	5.0	0.5
Oc1cccnc1Cc1ccccc1	-17.0	/
Cn1c(C(=O)O)c(CNCCc2ccco2)c2ccccc21	-33.0	/
CCC(Cc1ccccc1)NC(=O)c1ccc2c(c1)NC(=O)c1ccccc1S2 (stereo unspecified)	4.0	-1.1
FC(F)(F)c1cc(-n2c(CCc3nc(-c4ccc(Cl)cc4)no3)n[nH]c2=S)cc(C(F)(F)F)c1	/	-1.0
CC(C(=O)N1CCCCC1)N(C)CC(=O)Nc1ccc(Cl)c(C(F)(F)F)c1 (stereo unspecified)	13.0	/
CC1CCCC(C)N1C(=O)COC(=O)C1CCCCC1 (stereo unspecified)	7.0	/
C[C@]12CCC(=O)C[C@H]1CC(=O)[C@@H]1[C@@H]2CC(=O)[C@]2(C)CCC[C@@H]12 (tested in a mixture with another compound)	/	0.5
CN(C)/N=C/c1ccc(C(O)(c2nc3ccccc3s2)C(F)(F)F)o1 (stereo unspecified)	-3.0	/
c1cc(CSC2=NCCS2)nc(CSC2=NCCS2)c1	-12.0	/
CCOC(=O)c1c(S(=O)(=O)Nc2ccc(Cl)cc2)c(C)n(-c2ccccc2)c1C	/	-1.4
COc1ccc(-c2cc(C)nc(SCC(=O)Nc3ccccc3)n2)cc1	12.0	/
Cc1ccc(/C=N/n2cnnc2)c(C)c1	14.0	-1.0
CN(C)c1ccc(/C=N/S(=O)(=O)c2cccs2)cc1	-7.0	/
CC(=O)c1cc2cc(Br)ccc2oc1=O	/	2.1
N#CC(C#N)=Cc1cccn1CCCn1ccnc1	-19.0	/
CC1CC(c2ccccc2)n2ncnc2N1 (stereo unspecified)	4.0	-1.6
CC(CCc1ccccc1)Nc1ccc2c(c1)OCO2 (stereo unspecified)	8.0	2.8

# Additional entries
molecule	Sa helicase inh	MgrA DNA FP
COc1ccc(C=Nc2cc(NS(C)(=O)=O)ccc2C)cc1	/	-0.1
O=C(CNC(=O)c1ccccc1Cl)Nc1ccc(S(=O)(=O)N2CCOCC2)cc1	-13.0	/
O=C(CN1C(=O)S/C(=C\c2c(Cl)cccc2Cl)C1=O)Nc1cc([N+](=O)[O-])ccc1O	/	2.0
O=C(c1ccccc1)N1N=C(c2ccccc2)CC1c1ccc2c(c1)OCO2 (stereo unspecified)	/	2.5
CCn1c(Cc2ccc(OC)cc2)nnc1SCC(=O)NC1=NCCS1	2.0	-3.8
CNC(=O)CSc1nc(-c2ccccc2)cn1N	2.0	/
NC(=O)NC(CC(=O)N1CCc2ccccc2C1)c1ccc(Cl)cc1 (stereo unspecified)	-8.0	/
Cc1ccc2oc(=O)c3cc(C(=O)NCc4cccs4)sc3c2c1	20.0	0.6
Cc1ccc(N=C2SCC(=O)N2C)cc1	1.0	-1.6
COc1ccc(-c2nc(COc3ccc(Cl)cc3Cl)no2)cc1	18.0	/
O=C1C=C(c2ccc(Cl)cc2)OC2(CCCC2)O1	11.0	-4.0
CCOC(=O)c1cnn(-c2nc(C)cc(C)n2)c1N	20.0	0.6
Nn1c(SCc2nnc(-c3ccccc3)o2)nnc1-c1ccncc1	13.0	/
Cn1c(COc2ccccc2Br)nc2ccccc21	4.0	27.4
O=C(CCCN1CCN2CCCC2C1)c1ccc(F)cc1 (stereo unspecified)	6.0	/
Cc1c(Cl)cccc1N1CC(C(=O)O)CC1=O (stereo unspecified)	18.0	0.0
CC(C)(C)NC(=O)c1ccc2ccccc2n1	8.0	/
Clc1ccccc1Nc1nc(-c2ccc(-c3ccccc3)cc2)cs1	/	-2.2
COC(=O)c1sccc1NC(=O)C(C)(C)C	-43.0	/
CN(C)c1ccc(/C=C(/C#N)c2ccc(C#N)cc2)cc1	-56.0	8.4
CC(=O)N1CCOCCN(C(C)=O)CCOCC1	3.0	/
NC(=O)CSc1nnc(-c2ccccc2)o1	6.0	5.4
CCc1ccc2c(CSc3nnc(-c4ccco4)o3)cc(=O)oc2c1	-13.0	/
C/C(CN1C(=O)c2ccccc2C1=O)=N\Nc1ccccc1Cl	14.0	/
O=C(c1ccccc1)n1nc(-c2cccnc2)nc1NCc1cccs1	-15.0	/

# Part of the list above, reformatted.
compound: CC(c1ccccc1)C1C(C#N)=C(N)Oc2n[nH]c(-c3ccccc3)c21 (stereo unspecified)
  Sa helicase inh = 0.0; MgrA DNA FP = -2.8

compound: COc1ccc(Cl)cc1NC(=O)C1CCCN(c2cc(C)nc3ncnn23)C1 (stereo unspecified)
  Sa helicase inh = 5.0; MgrA DNA FP = -1.3

# Continuation:
molecule	Sa helicase inh	MgrA DNA FP
COC(=O)C1=C(NC(=O)c2ccccc2C)CCS1	15.0	4.0
Cc1nnc(NC(=O)CSc2nnc(CNC(=O)c3ccco3)n2-c2cccc(C)c2C)s1	-7.0	/
Cn1c(=N)n(CC(=O)C(C)(C)C)c2ccccc21	-8.0	/
CC(C)(C)NC(=O)CSc1nc(-c2cccs2)ccc1C#N	12.0	/
O=C(CSc1nccn1-c1ccccc1)Nc1ccccc1F	5.0	-1.1
Cc1cc(OCCCN2CCCC2)ccc1C(C)C	9.0	-2.4
Cc1cnc(C(=O)NC(C)CCc2ccccc2)cn1 (stereo unspecified)	14.0	-0.3
COc1ccc(NS(=O)(=O)c2ccc(N)cc2)nn1	/	3.4&0.8
C[n+]1cccc(O)c1I	12.0	-3.9
CCCCc1ccc(NC(=O)COC)cc1	12.0	1.6
CN/C(=C\C(=O)C(F)(F)F)c1ccccc1	-6.0	/
O=C(CSc1nnc(-c2ccncc2)n1Cc1ccco1)OC1CCCCC1	1.0	-1.5
NC(=O)C1(N2CCCCC2)CCN(c2ccc3nnc(-c4ccccc4)n3n2)CC1	17.0	/
COc1cc(/C=C2\C(=O)N(c3ccc(Cl)c(C(=O)O)c3)N=C2C)cc([N+](=O)[O-])c1O	/	0.0
CN(CC(=O)Nc1ccc(F)cc1)C(=O)c1ccc(-c2ccc(F)cc2)o1	-5.0	/
c1ccc(Cn2ncc3c(Nc4ccc5ccccc5c4)ncnc32)cc1	10.0	-0.8
Cc1ccc(CCNC(=O)NC(C)(C)C)cc1	-7.0	0.1
Cc1ccc(C)c(OCCn2nnc3ccccc32)c1	5.0	-1.9
CN(c1ccccc1)S(=O)(=O)c1ccc(C(=O)O)cc1	25.0	0.4
O=C1C[C@H](NC(=O)OCc2ccccc2)CO1	-1.0	-0.9
c1ccc(CN2CCN(Cc3ccncc3)CC2)cc1	14.0	-1.1
COc1cc(/C(N)=N/O)cc(OC)c1OC	14.0	/
N#Cc1c2c(c(Cl)n3c1nc1ccccc13)CCC2	-23.0	/
Cc1cc(C)n(C(C)CC(=O)Nc2ccc(CN3CCC(C)CC3)cc2)n1 (stereo unspecified)	4.0	/
Cc1c(-c2ccccc2)c(=O)oc2cc(OCC#N)ccc12	5.0	/
CCN1CCCC1CNC(=O)CCCOc1cc(=O)n(C)c2ccccc12 (stereo unspecified)	9.0	/
COc1cc2nc3n(Cc4ccccc4)c4ccccc4n3c(=O)c2cc1OC	-1.0	/
CC1CCCCN1CCNC(=O)c1nc(-c2cccnc2)no1 (stereo unspecified)	41.0	/
COC(=O)C1=C(C)N(c2ccc(OC)cc2)C(=O)/C1=C\c1ccccc1O	28.0	/
O=C(CCSc1nc2ccccc2o1)Nc1ccc(Br)cc1	21.0	-0.2
CCOC(=O)c1[nH]c(CSc2nnnn2-c2ccccc2C)c(C(=O)OCC)c1C	-56.0	/
Cc1cccc(C)c1N=C1Oc2ccccc2N(C(=O)C(F)(F)F)C1(C)c1ccccn1 (stereo unspecified)	7.0	-0.4
C/C(=C/C(=O)C(F)(F)F)N1CCN(Cc2ccccc2)CC1	9.0	/
O=C(CN1N=C(c2ccccc2)CCC1=O)NCCC1=CCCCC1	14.0	/
O=C(Nc1ccc(Cl)cc1)C12CC3CC(CC(O)(C3)C1)C2	-9.0	/
CCOCCOC(=O)C1=C(C)NC2=C(C(=O)CC(C)(C)C2)C1c1cc(OC)c(OC)cc1Br (stereo unspecified)	/	-1.1
CN1CC(=Nc2nonc2N)N(C)C1=O	9.0	-0.1
Cc1ccc(C)c(N2CCN(C(=O)C34CC5CC(C3)CC(n3nnc(C)n3)(C5)C4)CC2)c1	-25.0	/
O=C(NC1CCCCCC1)C1COc2ccccc2O1 (stereo unspecified)	1.0	-0.7
CCOC(=O)c1sc(SC)c2c1CC(c1ccc(C)cc1)CC2=O (stereo unspecified)	/	-0.2
Cn1c(=O)c2[nH]c(SCC(=O)c3ccc(-c4ccccc4)cc3)nc2n(C)c1=O	-8.0	/
CCOC(=O)c1cc2c(C(F)(F)F)cc(-c3cccs3)nc2o1	4.0	/
CC1(C)CC(=O)C(C=Nc2ccc(OC(F)(F)F)cc2)=C(O)C1	/	0.3
CCOC(=O)C(Cc1ccccc1)C(=O)Nc1cccc(C)n1 (stereo unspecified)	8.0	/
CC(C)NC(=O)c1ccoc1COc1ccccc1	-7.0	-3.0
CCCCCn1c(NCc2ccc(N(C)C)cc2)nc2ccccc21	8.0	/
CCCc1nnc(/N=C/c2cc(-c3ccccc3)oc2O)s1	3.0	3.7
COC(=O)C1=C(C)Nc2nc3ccccc3n2C1c1ccccc1 (stereo unspecified)	-1.0	20.1
CC(C)N(C(=O)NC(=O)c1ccc(-c2csnn2)cc1)C(C)C	/	0.8
Oc1ccc(Cl)cc1C=NCc1cccs1	/	0.5

# Three structures from above, sorted by formula weight, high to low.
molecule	Sa helicase inh	MgrA DNA FP
CC1(C)CC(=O)C(C=Nc2ccc(OC(F)(F)F)cc2)=C(O)C1	/	0.3
CCOC(=O)C(Cc1ccccc1)C(=O)Nc1cccc(C)n1 (stereo unspecified)	8.0	/
CN1CC(=Nc2nonc2N)N(C)C1=O	9.0	-0.1

# Next part.
molecule	Sa helicase inh	MgrA DNA FP
Cc1nn2c3ccccc3nc2n(-c2ccccc2)c1=O	17.0	1.5
CSc1ccsc1C1=NC(C)(C)CO1	/	-2.4
Cc1ccccc1CN(C)C(=O)c1ccc2ccccc2n1	-8.0	/
O=C(O)CCCC(=O)Nc1ccccc1Oc1ccccc1	/	-2.3
Cc1cc(NC(=O)CC2(CC(=O)O)CCCC2)n(C)n1	/	-0.7
COc1ccc(C(=O)CSc2nc3ccccc3c(=O)n2-c2ccc(C)cc2)cc1	16.0	-0.6
CCC(C)Nc1ncnc2c1cnn2Cc1ccc(Cl)cc1 (stereo unspecified)	-23.0	/
Cc1cc(C)nc(SCc2ccccc2C(=O)N2CCN(Cc3ccc(C#N)cc3)CC2)n1	23.0	/
O=c1cc(C23CC4CC(CC(C4)C2)C3)[nH][nH]1	0.0	3.2
O=c1c2ccccc2[nH]c(=S)n1CCO	-9.0	-0.2
CN(C)c1nccc(Nc2ccccc2)c1C#N	13.0	/

# Source: PubChem BioAssay
